TRPV1 PAM – HTS Assay for Compounds that Act as Potentiators of the Vanilloid Receptor 1; Transient receptor potential cation channel subfamily V member 1 (Homo sapiens), Q8NER1; TRPV1-expressing cells, Fluo-8 calcium influx, capsaicin EC20 potentiation; host cell line not named in the record; control for the full effect not named in the record; potentiation, % at 8.33 µM; 0.02% of 320,000 active; AID 540277, 2011; active means potentiation above 80%; inconclusive means 30% to 80%; inactive means below 30%; further: 0% is about no effect
Target sequence (Q8NER1 whole entry, looked up): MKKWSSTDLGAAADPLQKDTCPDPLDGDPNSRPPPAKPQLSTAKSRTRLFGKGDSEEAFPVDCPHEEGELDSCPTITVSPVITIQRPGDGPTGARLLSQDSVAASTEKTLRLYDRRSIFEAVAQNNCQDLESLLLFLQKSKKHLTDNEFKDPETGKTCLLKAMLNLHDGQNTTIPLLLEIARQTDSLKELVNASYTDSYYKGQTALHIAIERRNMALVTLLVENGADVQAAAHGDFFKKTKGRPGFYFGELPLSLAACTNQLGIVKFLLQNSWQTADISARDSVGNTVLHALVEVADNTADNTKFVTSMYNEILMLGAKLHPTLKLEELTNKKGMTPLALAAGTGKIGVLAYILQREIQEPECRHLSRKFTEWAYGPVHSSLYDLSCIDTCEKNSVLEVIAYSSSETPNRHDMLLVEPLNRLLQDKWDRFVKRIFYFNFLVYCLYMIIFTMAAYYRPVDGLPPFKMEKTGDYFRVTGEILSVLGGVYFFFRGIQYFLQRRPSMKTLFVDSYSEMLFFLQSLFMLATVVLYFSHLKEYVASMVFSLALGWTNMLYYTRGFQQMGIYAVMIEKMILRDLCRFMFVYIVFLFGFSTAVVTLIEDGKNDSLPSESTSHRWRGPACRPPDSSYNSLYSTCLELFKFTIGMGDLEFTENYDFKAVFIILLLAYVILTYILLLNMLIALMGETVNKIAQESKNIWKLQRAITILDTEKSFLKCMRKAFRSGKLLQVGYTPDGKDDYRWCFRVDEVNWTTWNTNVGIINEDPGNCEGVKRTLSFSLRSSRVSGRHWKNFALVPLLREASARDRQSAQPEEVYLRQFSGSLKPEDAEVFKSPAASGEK
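Fluo-8 calcium influx in TRPV1-expressing cells, kinetic read (ex 480/em 520 nm). Compound added and read 3 min for agonist activity, followed by capsaicin at EC20 final and 2 min further read for enhancement.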
TRPML1 blocker – qHTS for Inhibitors of the Human Mucolipin Transient Receptor Potential 1 (TRPML1); 0.02% of 390,000 active; TRPML1-inducible cells, Ca2+ dye fluorescence, FDSS; stronger effect = lower value; inhibition of EC80 agonist-evoked calcium signal; activity change, negative = inhibition, % (test concentration not listed); Mucolipin-1 (Homo sapiens), Q9GZU1; AID 624415, 2012; in the data active means activity change below about -50%; inconclusive means about -30% to -50%; inactive means above about -30%;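 further: stimulus is agonist 54-4 at its EC80 concentration; on the % scale 0 is the no-effect control and ±100 the full control effect; compound concentration not given in the record; the text of the record puts the active cut at -80%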
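Calcium fluorescence in TRPML1-DL cells induced overnight with Tet: a 110 s read after compound pin addition, then a 110 s antagonist read after challenge with 54-4 at 4 uM final (EC80).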
gsp antag – qHTS for Antagonists of gsp, the Etiologic Mutation Responsible for Fibrous Dysplasia/McCune-Albright Syndrome: qHTS. 0.4% of 340,000 active. Potency, µM (top dose mostly 76.9 µM), for inactives: at the highest dose activity change, negative = inhibition, actives largely listed as inhibitors. gsp-mutant cells, cAMP HTRF, 30 min; control for the full effect not named in the record; active = falling curve of any shape with a large fitted effect; inconclusive = falling curve, mostly with a smaller effect; inactive = flat or rising curve; cell line not stated here;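 further: intracellular cAMP measured with PDE inhibitor Ro 20-1724 present during compound exposure; potency means the concentration at half of the fitted maximal effect; on the % scale 0 is the no-effect control and ±100 the full control effect; nearly all actives have a fitted effect of over 65% in size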
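HTRF cAMP measurement after 30 min RT detection following 30 min, 37C compound treatment alongside […] (added as 300 uM solution) in G418-selected cells seeded at 2000/well and grown 16–24 h.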
Sfp inh – qHTS Assay for Inhibitors of Bacillus subtilis Sfp phosphopantetheinyl transferase (PPTase). 4'-phosphopantetheinyl transferase ffp (Bacillus subtilis), Q9F4F7. Biochemical Sfp PPTase activity, qHTS. Potency, µM, inactives show max response, negative = inhibition, hits mostly inhibitors. 3.5% of 310,000 active. AID 1490, 2009; active means well fitted inhibition curve with a large enough effect; inconclusive means small, poorly fitted or top-dose-only effect, or another doubt; inactive means no such curve, though single readings can be large or run the other way;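 further: the enzyme is Sfp with the accession as filed and its product quenches rhodamine fluorescence; potency means the concentration at half of the fitted maximal effect; 0% = enzyme reaction without inhibitor and -100% = no enzyme wells; top concentration of the series not given in the record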
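Compounds were incubated with enzyme (final 15 nM) for 15 min at room temperature before substrate addition started the reaction. Fluorescence at 525 nm excitation, 598 nm emission was recorded immediately and after 30 minutes.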
gsp agonist – qHTS for Agonist of gsp, the Etiologic Mutation Responsible for Fibrous Dysplasia/McCune-Albright Syndrome: qHTS | Potency, µM (highest dose often 76.9 µM), inactives show at the highest dose activation (cAMP increase), usual class: activators | gsp mutant cells, cAMP HTRF, 30 min; control for the full effect not named in the record | 0.13% of 340,000 active; active = well fitted activation curve with a large enough effect; inconclusive = small, poorly fitted or top-dose-only effect, or another doubt; inactive = no such curve, though single readings can be large or run the other way; cell line not stated here;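 further: phosphodiesterase inhibitor Ro 20-1724 added with compounds to block cAMP breakdown; potency means the concentration at half of the fitted maximal effect; nearly all actives have a fitted effect of over 60% in size; about a fifth of the inactives were tested at one dose only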
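Cells stably selected in G418 were plated at 2000/well, grown 16-24 hr, then given compounds in DMSO with the PDE inhibitor […] (300 uM solution added) for 30 min at 37C; cAMP was read by HTRF.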
Menin-MLL FL inh – qHTS Assay for Inhibitors Targeting the Menin-MLL Interaction in MLL Related Leukemias: Competition With Fluorescein Labeled MLL-derived Peptide. Fluorescence polarization, fluorescein-MLL peptide displacement from menin. FP activity change, % at 61.4 µM. 290,000 tested, under 10 active. AID 1766, 2009; inconclusive = falling polarisation curve, or a change in total fluorescence; inactive = total fluorescence flat and polarisation flat or rising; no compound was filed as active; the % refers to the polarisation; negative = inhibition;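 further: % of control where 0% means no effect; inhibitors lower the polarisation; unlabelled MLL peptide was the positive control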
ClpP mod – qHTS Assay for Activators of ClpP; AID 651965, 2013; purified B. subtilis ClpP, FRET peptide cleavage, 20 min; Potency, µM (doses to about 57.5 µM), inactives show at the top dose activity change, negative = active; ATP-dependent Clp protease proteolytic subunit (Bacillus subtilis (strain 168)), P80244; 1.9% of 340,000 active; active = well fitted falling curve with a large enough effect; inconclusive = small, poorly fitted or top-dose-only effect; inactive = no such curve, though single readings can be large or run the other way; further: potency means the concentration at half of the fitted maximal effect; the source files actives as falling curves though it sought activators and does not explain the sign; nearly all actives have a fitted effect of over 65% in size; many hits overshoot -100%
Target sequence (P80244 whole entry, looked up): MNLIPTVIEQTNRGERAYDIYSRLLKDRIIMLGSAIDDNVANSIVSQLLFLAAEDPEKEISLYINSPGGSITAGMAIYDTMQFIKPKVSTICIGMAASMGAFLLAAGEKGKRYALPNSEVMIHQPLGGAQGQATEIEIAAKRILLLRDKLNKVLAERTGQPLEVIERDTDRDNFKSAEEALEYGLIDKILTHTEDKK
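ClpP 10 microg/mL final, pH 8 Tris/KCl buffer with BSA, glycerol, Tween-20; compound pinned in; FRET-FV substrate; RT 20 min; Ex320/Em430; ΔFRET vs ADEP 5.8 microM, DMSO, no enzyme.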
* marks the source's active call; other numbers are inactive results; u = inconclusive; x = no result given; & = joins results of further samples; [ ] = remark or other dose.

molecule	TRPV1 PAM	TRPML1 blocker	gsp antag	Sfp inh	gsp agonist	Menin-MLL FL inh	ClpP mod
COc1ccc(C)cc1NC(=O)C1CCC(CNc2c(N3CCOCC3)c(=O)c2=O)CC1 (centres undefined)	-2	27	7%	-10%	-27%	3.5	3.1%
N#Cc1ccccc1Oc1ccccc1C=O	-10	-12	0%	6%	-4%	-2.4	-0.1%
O=C(Oc1ccc(-c2cnc3ccccc3n2)cc1)c1cccc([N+](=O)[O-])c1	19	-5	4%	-11%	5%	-0.4	-15%
COc1ccccc1CNC(=O)OCc1nccnc1C(=O)Nc1ccc(Br)cn1	4	-9	10%	-10%	2%	x	1.0%
Cc1ccc(C2C(C#N)=C(N)Oc3n[nH]c(-c4cccs4)c32)s1 (centres undefined)	5	-1	-9%	18%	21%	3.6	0.4%
Cc1ccc(Nc2nc(=O)c3cccnc3s2)cc1	5	32	2%	8%	10%	-1.1	-1.6%
COc1ccc(CCNC(=O)c2cccc(S(=O)(=O)N3CCOCC3)c2)cc1OC	-12	-8	-5%	x	25%	x	0.9%
CC(C)(C)N(NC(=O)c1ccccc1)C(=O)c1cccc(C(=O)N(NC(=O)c2ccccc2)C(C)(C)C)c1	2	3	5%	8%	-17%	0.1	-2.5%
COc1cccc(NC(=O)c2nc(SC)ncc2Cl)c1	4	42	-15%	14%	-22%	0.5	x
O=C(CSc1nc2ccsc2c(=O)n1NC(=O)c1ccccc1)NCc1ccco1	1	-3	-9%	2%	6%	2.2	-2.4%
C=CCSc1ncnc2sc(C)c(C)c12	1	-2	1%	-6%	-9%	-0.5	-0.6%
Cc1ccnc(NC(=O)c2ccc(OCC3CCCO3)cc2)c1 (centres undefined)	21	-12	8%	x	34%[15.4 µM]	x	x
CN(CC(=O)Nc1ccc(F)c(F)c1)S(=O)(=O)c1cccc2cccnc12	18	14	-7%	11%	7%	x	-1.9%
CC1CCN(CCCN2C(=O)C3C(C(=O)Nc4cccc(Cl)c4)C4C=CC3(O4)C2C(=O)NC2CCCCC2)CC1 (centres undefined)	-10	-6	8%	9%	-20%	2.6	x
CCN1CCN(C(=O)CN(CCc2ccccc2)S(C)(=O)=O)CC1	-5	5	4%	10%	-22%	0.5	-1.0%
Cc1ccc(-c2[nH][nH]c(=O)c(=O)c2N=Nc2ccccc2)cc1	27	x	-6%	13%	36%	-0.9	1.3%
COc1ccc2[nH]c(C(=O)N3CCc4ccccc4C3)c(C)c2c1	-9	17	-19%	8%	3%	-4.8	u
COC(=O)c1ccccc1COn1c(=O)c(C)[n+]([O-])c2ccccc21	3	27	-10%	-2%	-26%	-2.4	-7.1%
Cc1cccc(OCCCSc2nc3ccc(C)cc3[nH]2)c1	-20	9	-15%	11%	11%	-0.9	-0.6%
CC(=O)c1cccc(NC(=O)NNC(=O)c2ccc3ccccc3c2)c1	-4	-5	1%	3%	u	2.4	-0.6%
COc1ccc(CCNc2nc(Cl)nc(NC(C)(C)CO)n2)cc1OC	0	2	7%	9%	9%	-1.6	-1.1%
Cn1nc(C(=O)N2CCN(c3ccccc3)CC2)c2c1-c1ccccc1S(=O)(=O)C2	6	7&-5	-19%	19%	u	-0.3	-3.2%&-1.5%
O=c1[nH]cnc(O)c1C(c1ccc2c(c1)OCO2)c1c(O)nc[nH]c1=O	-13	-1	12%	4%	1%	7.1	-2.8%
O=C(NCCc1ccccc1)c1ccc2c(c1)S(=O)(=O)N=C1CCCCCN12	18	-8	-10%	x	-32%	x	0.3%
Cc1cc(NC(=O)C(C)C)n(-c2nc3ccccc3s2)n1	1	6	5%	22%	0%	-3.9	-2.2%
CCN(CC)CCN1C(=O)C(O)=C(C(=O)c2cccs2)C1c1ccccn1 (centres undefined)	-10	-3	-10%	56µM*	-21%	u	-0.8%
CC(C)(O)[C@@H]1CC[C@@](C)(C2CC[C@]3(C)C2[C@H](O)CC2[C@@]4(C)CC[C@H](O)C(C)(C)C4[C@@H](O[C@H]4O[C@@H](CO)[C@H](O)[C@@H](O)[C@@H]4O[C@@H]4O[C@H](CO)[C@@H](O)[C@H](O)[C@H]4O)C[C@]23C)O1 (stereo in doubt)	x	-15	6%	x	x	x	2.0%
Cc1ccc(OCC(O)Cn2c(=N)n(Cc3ccccc3)c3ccccc32)cc1 (centres undefined)	2	-6	11%	-11%	-11%	2.1	2.1%
COc1cc(OC)nc(NC(=O)C(C)C)n1	x	-14	-5%	19%	-44%[inhibitor]	-1.6	-0.3%
COc1ccccc1CC(=O)OCC(=O)N1CCN(c2ccc(F)cc2)CC1	x	30	-2%	x	u	x	1.0%
CCc1nc(SCC(N)=O)c2c(=O)n(C)c(=O)n(C)c2n1	-6	8	-2%	-14%	45%	3.0	2.3%
COc1ccc(NC(=O)NNC(=O)COc2cc(C)c(Cl)c(C)c2)c(OC)c1	4	2	10%	u	-20%	-1.7	-1.3%
O=[N+]([O-])c1cc([N+](=O)[O-])c(Oc2cccnc2Br)cc1NN1CCCCC1	5	20	-10%	2%	u	-1.6	0.4%
COc1cc(OC)cc(C(=O)NNC(=O)CCOc2ccccc2OC)c1	9	0	8%	x	2%	x	-3.7%
CCOC(=O)c1cc2ccc3ccccc3c2s1	4	19	9%	-15%	9%	2.9	u
CCOC(=O)C(CC)Sc1ccc2nnc(CCNS(=O)(=O)c3ccccc3)n2n1 (centres undefined)	1	3	-10%	6%	-60%[inhibitor]	-2.9	-12%
CCOC(=O)C1(Cc2cccc(OC)c2)CCN(Cc2cccnc2)CC1	-3	12	-6%	22%	-7%[15.4 µM]	1.9	x
COc1ccc(Cl)cc1NC(=O)NNC(=O)C(=O)Nc1ccc(F)cc1	x	-3	x	x	-26%	x	-3.6%
O=c1nc(Nc2ccc(OCc3ccccc3)cc2)sc2ncccc12	9	5	5%	5%	-10%[15.4 µM]	0.3	x
Cc1noc(C)c1COc1ccc(C(=O)Nc2ncccc2O)cc1	2	-3	11%	x	-31%	x	0.7%
CN(C)CCC(C(=O)c1ccccc1)c1ccccn1 (centres undefined)	x	-7	14%	x	-3%[15.4 µM]	x	0.4%
C/C(=N/NC(=O)CNS(=O)(=O)c1ccc(C)cc1)c1cccc([N+](=O)[O-])c1	-6	-10	-3%	5%	29%	4.4	1.3%
CCNC(=O)COC(=O)/C=C/c1cccc(F)c1	1	12	4%	12%	u	2.6	x
Cc1cccc(NC(=S)NC23CN4CN(CN(C4)C2)C3)c1	3	0	7%	-5%	14%	-0.1	x
C=CCC[C@@H](Cc1ccc(F)cc1)C(=O)OC[C@@H](NC(=O)[C@@H](CC=C)CC(=O)N[C@@H](CO)Cc1ccccc1)C(C)(C)C	x	-8	-22%	x	x	x	2.0%
O=C(Cc1ccccc1)Nc1nc(=O)c2ccccc2s1	x	-2	22%	u	9%	0.0	1.3%
CCCCn1c(=O)nc2n(-c3ccc(C)cc3)c3ccccc3cc-2c1=O	-26	-7	-10%	-18%	-10%[15.4 µM]	-0.1	u
O=C(CSc1ccc([N+](=O)[O-])cn1)Nc1ccc(N2CCOCC2)c(Cl)c1	-2	-28	-7%	1%	14%	1.9	-4.3%
COc1ccc(Cl)cc1N(CC(=O)NC(C(C)C)C(C)C)S(C)(=O)=O	21	-3	7%	4%	-4%	1.0	1.4%
Cc1ccc2nc(-c3ccc4c(c3)OCCO4)cc(C(=O)O)c2c1	12	-4	u	20%	1%	3.1	-20%
OCC[C@H]1C[C@H](O)[C@@H](O)[C@]2(OCCc3ccccc32)O1	13	-4	9%	x	1%	x	-1.8%
CCSc1n[nH]c(=O)[nH]c1=O	-1	3	21%	-8%	-44%	-0.3	1.1%
CCOC(=O)c1sc2nc(SCC#N)n(CCCN3CCCC3=O)c(=O)c2c1C	10	-5	6%	1%	u	1.6	-6.4%
Cc1ccccc1-c1cc(C(=O)N2CCCC2)c2ccccc2n1	-18	1	3%	-5%	-5%[15.4 µM]	-2.8	-3.5%
Cc1cc(SCC(=O)N/N=C/c2ccc(O)c(O)c2O)c(C)cc1Br	0	5	-2%	10µM*	-20%	1.1	-3.8%
CCCC(=O)NC(C)c1nc2ccccc2n1C(C)C (centres undefined)	-14	22	6%	17%	-27%	-0.2	-1.2%
O=C(Nc1c(-c2ccccc2)nc2ccccn12)c1cccs1	1	4	14%	12%	7%[15.4 µM]	2.8	1.0%
COCCn1c(C)cc(C2=NNC(=Nc3ccc(F)cc3)SC2)c1C	11	-9	11%	50µM*	6%	5.5	-1.0%

Screens: PubChem BioAssay, National Center for Advancing Translational Sciences (NCATS)
